# Bioassay records from PubChem BioAssay.
# YB-1 expr inh – inhibitors of YB-1 gene expression, primary screen, cell-based, fluorescence. U2OS, qRT-PCR YB-1 vs CDIP delta delta Cp, 16 h; stronger effect = higher value; zero = DMSO, each unit about twofold. delta delta Cp (YB-1 minus CDIP) (concentration not given with the values). actives 0.37% (n = 30,000);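 active means delta delta Cp rounded down to an integer at or above 3, about 3 SD of DMSO wells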;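 further: higher means less YB-1 transcript or more CDIP transcript relative to DMSO; stock transfer was 100 nL into about 100 µL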
# MITF inhib – inhibitors of MITF, primary screen, MITF inhibitor project, cell-based, luminescence. TRPM1 promoter luciferase, 24 h. inhibition, % (concentration not given with the values). actives 0.28% (n = 37,000). AID 2240, 2010;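 active means most replicates at 85% or more, or half of them and the mean; inconclusive means half reach 85% but not the mean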;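 further: human melanocyte line stably carrying TRPM1 promoter luciferase reporter; 0% = vehicle wells and 100% = a positive control; the first replicate is given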
# PD-1 reverse act – activators reversing PD-1 mediated T-cell inhibition, primary screen, luminescence, primary human CD4 T cells, PD-L1 beads. 29,000 tested, under 10 active. AID 2316, 2010. CellTiter-Glo 96 h. activation, % (no concentration beside the values);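 active means replicate mean of 50% or more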;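 further: 0% = median vehicle wells and 100% = positive control; 100 nL library stock added to about 50 µL; numbers are from one replicate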
# Shh pathway inh – Hedgehog pathway signaling inhibitors, primary screen, luminescence, Shh-LIGHT2 cells, Gli-luciferase; Shh-LIGHT2 Gli-luciferase reporter, 30 h; inhibition, % (no concentration beside the values); actives 2.1% (n = 22,000);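 active means replicate mean of 65% or more; inconclusive means mean lower but half the replicates past it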;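 further: pathway switched on by Shh-conditioned medium diluted 1 in 25 in low serum; 100 nL library stock added to about 40 µL; 0% = median of neutral wells and 100% = positive control level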
# An asterisk follows results filed as active; ? = inconclusive; · = not tested or not shown. Not all compounds are listed; rates above refer to the full screens.
canonical_smiles	YB-1 expr inh	MITF inhib	PD-1 reverse act	Shh pathway inh
Cc1ccc(S(=O)(=O)N(C)C[C@H]2Oc3ccc(NC(=O)Cc4ccccc4)cc3C(=O)N([C@H](C)CO)C[C@H]2C)cc1	0.17	-13	0.0	-1
Cc1noc(C)c1NC(=O)N(C)C[C@@H]1Oc2ccc(NC(=O)Cn3cnnn3)cc2CC(=O)N([C@H](C)CO)C[C@H]1C	-0.35	-5	·	-22
Cc1cc([N+](=O)[O-])ccc1NC(=O)CSc1nnc(-c2ccccc2)o1	·	-71	0.4	·
C[C@H]1CN([C@@H](C)CO)C(=O)Cc2cc(NS(=O)(=O)c3ccc(F)cc3)ccc2O[C@@H]1CN(C)C(=O)NC1CCCCC1	0.054	-18	1.8	-7
Cc1noc(C)c1S(=O)(=O)Nc1ccc2c(c1)CC(=O)N([C@@H](C)CO)C[C@@H](C)[C@@H](CN(C)S(=O)(=O)c1ccc(Cl)cc1)O2	-0.17	-8	-3.5	-10
Cc1noc(C)c1NC(=O)N(C)C[C@@H]1Oc2ccc(NC(=O)Cc3ccccc3)cc2C(=O)N([C@H](C)CO)C[C@H]1C	-0.14	0	2.9	·
COc1ccc(S(=O)(=O)N(C)C[C@H]2Oc3c(NC(=O)C4CC4)cccc3C(=O)N([C@@H](C)CO)C[C@H]2C)cc1	-0.62	1	2.1	4
C[C@@H]1CN([C@@H](C)CO)C(=O)c2cc(NC(=O)Nc3ccc4c(c3)OCO4)ccc2O[C@@H]1CN(C)Cc1ccc2c(c1)OCO2	0.015	-19	1.6	21
Cc1ccc(S(=O)(=O)Nc2ccc3c(c2)CC(=O)N([C@H](C)CO)C[C@@H](C)[C@H](CN(C)S(=O)(=O)c2ccc(F)cc2)O3)cc1	0.23	-14	1.4	0
Cc1c(Cl)cccc1NC(=O)CCN1C(=O)c2ccc([N+](=O)[O-])cc2C1=O	·	-9	4.0	·
CN(C)CCC(c1ccc(Br)cc1)c1ccccn1 (stereo not given)	0.22	7	·	-37
Cc1ccc(S(=O)(=O)N(C)C[C@H]2Oc3ccc(NC(=O)Cn4cnnn4)cc3C(=O)N([C@H](C)CO)C[C@H]2C)cc1	-0.17	5	1.3	-19
Cc1cc(C)c(S(=O)(=O)NCc2ccccn2)cc1C	·	-27	0.2	·
C[C@@H]1CN([C@H](C)CO)C(=O)c2cc(NC(=O)Nc3ccc(C(F)(F)F)cc3)ccc2O[C@H]1CN(C)Cc1ccc(C(=O)Nc2ccccc2N)cc1	-0.22	7	-0.5	·
O=C(COc1ccc(Br)cc1)NCC1CCCO1 (stereo not given)	9.5*	-23	-0.2	-8
C[C@H]1CN([C@@H](C)CO)C(=O)c2cccc(NC(=O)Nc3ccc(C(F)(F)F)cc3)c2O[C@@H]1CN(C)S(=O)(=O)c1cn(C)cn1	0.11	-9	0.7	-12
C[C@@H]1CN([C@@H](C)CO)C(=O)c2cc(NC(=O)Nc3ccc(C(F)(F)F)cc3)ccc2O[C@H]1CN(C)Cc1ccc(Cl)c(Cl)c1	0.26	27	-3.8	27
CC(C)c1ccc(OCC(=O)Nc2ccccc2-c2nc3ccccc3s2)cc1	·	-9	-0.6	·
C[C@@H]1CN([C@H](C)CO)C(=O)c2cc(NC(=O)Nc3ccc4c(c3)OCO4)ccc2O[C@@H]1CN(C)C(=O)NC1CCCCC1	0.19	-8	-0.3	·
C[C@@H]1CN([C@H](C)CO)C(=O)c2cccc(NC(=O)C3CCCCC3)c2O[C@@H]1CN(C)Cc1ccc(-c2ccccc2)cc1	-0.52	23	-5.2	-13
COc1ccc(CC(=O)Nc2cccc(-c3nc4cc5ccccc5cc4[nH]3)c2)cc1	0.071	-3	0.4	·
C[C@H]1CN([C@@H](C)CO)C(=O)c2cccc(NC(=O)c3ccc(-c4nccs4)cc3)c2O[C@@H]1CN(C)S(C)(=O)=O	0.091	-5	1.2	-17
COC(=O)c1sccc1NC(=O)c1cc(-c2ccccn2)nc2ccc(Br)cc12	·	22	1.6	·
C[C@@H]1CCCCO[C@@H](CN(C)S(=O)(=O)c2ccc(Cl)cc2)[C@@H](C)CN([C@H](C)CO)C(=O)c2cc(NC(=O)Nc3ccccc3)ccc2O1	-0.066	7	-0.7	?
COc1ccc(S(=O)(=O)N(C)C[C@H]2Oc3ccc(NC(=O)Nc4ccc(F)cc4)cc3C(=O)N([C@H](C)CO)C[C@@H]2C)cc1	-0.33	-9	·	2
COc1ccc(NC(=O)N(C)C[C@@H]2Oc3ccc(NS(=O)(=O)c4ccc(F)cc4)cc3C(=O)N([C@H](C)CO)C[C@H]2C)cc1	-0.25	-3	-0.3	-28
C[C@H](CO)N1C[C@H](C)[C@@H](CN(C)S(C)(=O)=O)Oc2c(NC(=O)Nc3ccc4c(c3)OCO4)cccc2C1=O	0.21	-11	·	8
C[C@@H]1CN([C@H](C)CO)C(=O)c2cccc(N(C)C)c2O[C@H]1CN(C)Cc1ccc(-c2ccccc2)cc1	0.2	-6	-7.6	-59
CCCOc1ccc(C(=O)C2C(=O)C(=O)N(c3nc(C)c(C(=O)OC)s3)C2c2ccco2)cc1 (stereo not given)	·	-8	1.4	·
C[C@H](CO)N1C[C@H](C)[C@H](CN(C)Cc2ccc(-c3ccccc3)cc2)Oc2ccc(NC(=O)Nc3ccc4c(c3)OCO4)cc2C1=O	0.76	7	2.9	·
CCOC(=O)c1c(NC(=O)COc2cc(C)ccc2C)sc(C)c1C	·	-6	-0.3	·
CC(C)NC(=O)Nc1ccc2c(c1)CC(=O)N([C@@H](C)CO)C[C@@H](C)[C@@H](CN(C)Cc1ccc(Oc3ccccc3)cc1)O2	0.11	25	-3.1	26
C[C@H](CO)N1C[C@H](C)[C@H](CN(C)Cc2ccc(C(=O)Nc3ccccc3N)cc2)Oc2c(NC(=O)c3ccncc3)cccc2C1=O	-0.47	-10	-2.8	·
C[C@H]1CN([C@@H](C)CO)C(=O)Cc2cc(NC(=O)CCC(F)(F)F)ccc2O[C@H]1CN(C)C(=O)Nc1ccc2c(c1)OCO2	0.2	2	-0.1	·
Nc1ccc(-c2nc3ccccc3s2)cc1	-0.18	10	0.1	-95
COC(=O)c1ccc(NC(=O)CN(c2ccccc2Br)S(C)(=O)=O)cc1	·	0	1.4	·
CNC[C@@H]1Oc2ccc(NS(=O)(=O)c3cn(C)cn3)cc2CC(=O)N([C@H](C)CO)C[C@H]1C	0.11	-6	2.8	-26
COc1ccc(OCC(=O)Nc2ccc(C)cc2[N+](=O)[O-])cc1	·	-28	-0.6	·
Cc1ccc(NC(=O)c2c(NC(=O)CN3CCOCC3)sc3c2CCC3)c(C)c1	·	-13	-3.1	·
CNC[C@@H]1Oc2ccc(NC(=O)Cn3cnnn3)cc2CC(=O)N([C@@H](C)CO)C[C@@H]1C	-0.058	16	·	-8
Cc1noc(C)c1NC(=O)Nc1ccc2c(c1)C(=O)N([C@H](C)CO)C[C@@H](C)[C@@H](CN(C)CC1CCCCC1)O2	-0.32	-2	1.2	-12
CC(C)NC(=O)N(C)C[C@@H]1Oc2ccc(NC(=O)CCC(F)(F)F)cc2C(=O)N([C@H](C)CO)C[C@@H]1C	-0.12	-9	-0.8	·
COc1cc2c(cc1O)C1Cc3ccc(O)c(OC)c3CN1CC2 (stereo not given)	0.68	-9	-2.3	-58
C[C@@H]1CN([C@@H](C)CO)C(=O)c2cccc(NC(=O)c3ccc(-c4nccs4)cc3)c2O[C@H]1CN(C)Cc1ccncc1	0.099	0	1.7	0
Cc1ccc2nc(-c3cccnc3)cc(C(=O)Nc3sc4c(c3C(N)=O)CCCCCC4)c2c1	·	39	-1.2	·
CN(CC(=O)O)S(=O)(=O)c1ccc2ccccc2c1	·	-1	2.1	·
C[C@H]1CN([C@@H](C)CO)C(=O)c2cc(NS(=O)(=O)c3cn(C)cn3)ccc2O[C@@H]1CN(C)Cc1ccncc1	-0.087	6	0.1	-15
COCCNc1ncnc2c1cnn2Cc1ccc(C)cc1	·	8	1.1	·
C[C@@H]1CN([C@H](C)CO)C(=O)Cc2cc(NC(=O)Nc3cccc4ccccc34)ccc2O[C@H]1CN(C)Cc1ccncc1	-0.14	30	0.0	-1
NC(=O)C1(N2CCCCC2)CCN(CC(=O)Nc2ccc(Br)cc2)CC1	·	10	1.3	·

# (cont.)
canonical_smiles	YB-1 expr inh	MITF inhib	PD-1 reverse act	Shh pathway inh
CC(C)NC(=O)N(C)C[C@@H]1Oc2ccc(NC(=O)c3ccncc3)cc2CC(=O)N([C@H](C)CO)C[C@@H]1C	0.048	-7	·	5
COc1ccccc1CCNC(=O)c1cc(-c2ccncc2)nc2ccc(Br)cc12	·	10	-5.4	·
C[C@H](CO)N1C[C@H](C)[C@@H](CN(C)C(=O)Nc2cccc3ccccc23)Oc2c(NC(=O)CCCCCC(=O)Nc3ccccc3N)cccc2C1=O	-0.16	16	1.7	·
C[C@@H]1CN([C@H](C)CO)C(=O)Cc2cc(NC(=O)Nc3ccc(C(F)(F)F)cc3)ccc2O[C@@H]1CN(C)C(=O)Nc1ccc(C(F)(F)F)cc1	-0.079	42	-3.6	18
Cc1n[nH]c(C)c1N1C(=O)c2cccc3c(N)ccc(c23)C1=O	-0.3	-2	-0.4	0
C[C@H](CO)N1C[C@H](C)[C@H](CN(C)C)Oc2c(NC(=O)CCCCCC(=O)Nc3ccccc3N)cccc2C1=O	-0.29	-21	0.9	·
Cc1ccc(Oc2coc3cc(OCC(=O)Nc4ccccc4C(F)(F)F)ccc3c2=O)cc1	·	-5	1.2	·
Cc1ccc(S(=O)(=O)N(C)C[C@H]2Oc3c(NC(=O)Nc4c(C)noc4C)cccc3C(=O)N([C@@H](C)CO)C[C@H]2C)cc1	-0.078	-15	0.3	?
CC(=O)O[C@H]1C[C@@H](OC(C)=O)C(C)(C)C2C[C@@H](OC(C)=O)[C@]3(C)C([C@H](OC(C)=O)C[C@@]4(C)[C@H](c5ccoc5)OC(=O)[C@H]5O[C@]543)[C@]21C (stereo not given in full)	-0.08	8	·	36
C[C@@H]1CN([C@H](C)CO)C(=O)c2cc(NS(=O)(=O)c3cn(C)cn3)ccc2O[C@@H]1CN(C)Cc1ccc2c(c1)OCO2	-0.18	0	0.4	·
CCOC(=O)c1c(NC(=O)COc2ccc(C)cc2Br)sc(C)c1C	·	-50	-3.8	·
CC(C)(C)NC(=O)c1ccc2c3c(onc13)-c1ccccc1C2=O	-0.49	30	-5.9	28
Cc1ccc(-c2csc3nnc(SCC(=O)N4CCOCC4)n23)cc1	·	-15	1.5	·
CNC[C@H]1Oc2c(NC(=O)Nc3cccc4ccccc34)cccc2C(=O)N([C@H](C)CO)C[C@H]1C	0.11	-2	-0.6	-16
CNC(=O)CN(c1ccc(Br)cc1)S(=O)(=O)c1ccc(C)cc1	·	3	0.1	·
O=C1CC2(CCCC2)C(=O)N1c1cc(C(F)(F)F)cc(C(F)(F)F)c1	0.13	23	0.7	6
C[C@H](CO)N1C[C@H](C)[C@H](CN(C)C(=O)Nc2ccccc2)Oc2ccc(NC(=O)Nc3cccc4ccccc34)cc2C1=O	0.1	12	·	15
COc1ccc(NC(=O)N(C)C[C@@H]2Oc3ccc(NC(=O)Nc4ccc(C(F)(F)F)cc4)cc3C(=O)N([C@H](C)CO)C[C@H]2C)cc1	0.065	10	0.3	16
C[C@H](CO)N1C[C@H](C)[C@H](CN(C)S(C)(=O)=O)Oc2c(cccc2N(C)C)C1=O	0.12	-10	2.0	-16
COc1ccc(NC(=O)N(C)C[C@H]2Oc3ccc(NC(=O)Cc4cn(C)c5ccccc45)cc3C(=O)N([C@H](C)CO)C[C@H]2C)cc1	-0.29	-2	-0.3	-2

# Pulled by compound from the entries so far:
canonical_smiles	YB-1 expr inh	MITF inhib	PD-1 reverse act	Shh pathway inh
Cc1cc(C)c(S(=O)(=O)NCc2ccccn2)cc1C	·	-27	0.2	·
COc1ccc(NC(=O)N(C)C[C@@H]2Oc3ccc(NC(=O)Nc4ccc(C(F)(F)F)cc4)cc3C(=O)N([C@H](C)CO)C[C@H]2C)cc1	0.065	10	0.3	16
COc1ccc(S(=O)(=O)N(C)C[C@H]2Oc3ccc(NC(=O)Nc4ccc(F)cc4)cc3C(=O)N([C@H](C)CO)C[C@@H]2C)cc1	-0.33	-9	·	2
Nc1ccc(-c2nc3ccccc3s2)cc1	-0.18	10	0.1	-95
C[C@@H]1CN([C@H](C)CO)C(=O)c2cc(NS(=O)(=O)c3cn(C)cn3)ccc2O[C@@H]1CN(C)Cc1ccc2c(c1)OCO2	-0.18	0	0.4	·
COc1ccc(S(=O)(=O)N(C)C[C@H]2Oc3c(NC(=O)C4CC4)cccc3C(=O)N([C@@H](C)CO)C[C@H]2C)cc1	-0.62	1	2.1	4
